High-throughput results: PubChem BioAssay, several laboratories
RecA intein inh = blocks M. tuberculosis RecA intein splicing; AID 2221; cell-free RecA intein splicing, fluorescence; P9WHJ3; actives 0.75% (n = 290,000); inhibition, %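 (about 9 µM by stock and volumes)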; in the data active = inhibition above about 30%; inconclusive = no clear call, values can overlap the other calls;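 also: 0% = vehicle wells and 100% = reference inhibitor control wells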
Target sequence (P9WHJ3 whole entry, looked up): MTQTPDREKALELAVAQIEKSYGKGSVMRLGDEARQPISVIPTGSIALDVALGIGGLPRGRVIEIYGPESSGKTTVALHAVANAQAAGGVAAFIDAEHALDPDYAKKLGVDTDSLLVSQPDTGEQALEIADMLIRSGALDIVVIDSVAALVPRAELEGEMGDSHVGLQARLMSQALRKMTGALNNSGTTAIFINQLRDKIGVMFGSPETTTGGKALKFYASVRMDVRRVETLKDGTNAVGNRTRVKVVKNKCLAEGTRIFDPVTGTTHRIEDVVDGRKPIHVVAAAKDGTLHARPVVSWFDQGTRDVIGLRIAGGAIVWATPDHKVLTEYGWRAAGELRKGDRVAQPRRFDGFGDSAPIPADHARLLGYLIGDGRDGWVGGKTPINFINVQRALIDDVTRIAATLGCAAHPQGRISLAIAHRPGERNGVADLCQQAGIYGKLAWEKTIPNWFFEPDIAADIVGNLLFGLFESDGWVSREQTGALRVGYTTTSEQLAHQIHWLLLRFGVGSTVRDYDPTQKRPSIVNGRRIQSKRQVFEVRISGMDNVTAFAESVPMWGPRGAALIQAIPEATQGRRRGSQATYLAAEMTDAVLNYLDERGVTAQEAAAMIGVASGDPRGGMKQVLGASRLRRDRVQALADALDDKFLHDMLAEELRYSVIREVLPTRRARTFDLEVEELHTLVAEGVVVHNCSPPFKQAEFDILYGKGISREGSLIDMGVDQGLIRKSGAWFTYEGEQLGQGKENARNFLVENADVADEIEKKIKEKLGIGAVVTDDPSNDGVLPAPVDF
Mtb betalactam = beta-lactam sensitization of Mtb H37Rv; M. tuberculosis H37Rv growth with meropenem, percent inhibition; hits of this screen are not shown here; inhibition, % at 25 µM; actives 0.27% (n = 330,000);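 active = about 74% or more and at least 40 points above the plate without the antibiotic, then above 30% in a dose series; inconclusive = first-round hits that could not be retested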;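 also: growth measured after seven days incubation then overnight dye step; 0% = bacteria only wells and 100% = bacteria with antibiotic; twin plates without the antibiotic show which effects depend on it; some results filed as inactive read as strong as hits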
YopH inh = YopH (Yersinia) phosphatase inhibition; AID 898; inhibition, %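 (about 10 µM by stock and volumes)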; fluorescence Ex485/Em525; actives 0.16% (n = 140,000);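 active = inhibition of 50% or more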;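 also: controls were vehicle for no effect and minimum signal wells for full effect; inactives centre near -20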
Mtb H37Rv = M. tuberculosis H37Rv growth inhibitors, H37Rv strain (AID 1626) | actives 0.95% (n = 220,000) | M. tuberculosis H37Rv growth inhibition; higher % means a stronger effect | inhibition, % at 10 µM; hits with a dose series show IC50 in µM;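 active = confirmed in a dose series; inconclusive = inhibition above 80% but not taken into the dose series; inactive = below 80% or under 30% at every dose of the series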;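 also: bacteria incubated seven days before Alamar blue readout; 0% = bacteria only wells and 100% = bacteria with antibiotic wells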
Arbovirus anti = antivirals against arbovirus infection | arbovirus infection cell-based antiviral screen | inhibition, % at 10 µM | actives 0.37% (n = 200,000);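 active = inhibition from about 30%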;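 also: bluetongue infection of BSR cells; cell survival read as ATP light after 72 h; 0% = infected wells without compound and 100% = uninfected wells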
Arbovirus anti repeat = further read-out of Arbovirus anti, marked with its call; inhibition, %; measured here: 10K subset replicate screen; many hits read low in the repeat;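 first of two repeat runs on a subset; 0% = infected and 100% = uninfected wells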
Numbers without * were called inactive; ? = inconclusive; . = no result given. Only part of the results is shown; rates above refer to the full screens.

SMILES	RecA intein inh	Mtb betalactam	YopH inh	Mtb H37Rv	Arbovirus anti	others
CCn1c(SCc2nc(-c3ccc(Cl)cc3)no2)nnc1-c1ccco1	4.8	9	0	16%	15
CCCNC(=O)CCc1c(C)nc2c(c(C)nn2-c2ccc(C)cc2)c1C	-2.0	?	.	.	.
COc1ccc(S(=O)(=O)N(CC(=O)N2CCOCC2)Cc2ccccc2)cc1C	-0.8	-6	-22	6%	2
O=C(COC(=O)c1ccc(S(=O)(=O)C(F)F)cc1)Nc1cccnc1Cl	-3.0	2	.	.	.
CCC(C)c1ccc(NC(=O)N2CCOCC2)cc1 (centres undefined)	-0.4	2	.	.	.
COC(=O)c1ccc(-c2noc(CN(Cc3ccncc3)CC3CCCO3)n2)cc1 (centres undefined)	3.2	-1	.	-2%	13
COCC1CCN(c2nc3nonc3nc2N2CCSCC2)C1 (centres undefined)	-0.5	-1	.	0%	1
COc1ccc(C2CC(c3cccc(Cl)c3)n3nc(N)nc3N2)cc1 (centres undefined)	-1.9	-7	-30	-15%	6	Arbovirus anti repeat=3
COc1ccc(CNCC(O)(c2ccccc2)c2ccc(Cl)cc2)cc1 (centres undefined)	2.4	65	-3	0%	-18
O=C(N/N=C/C(Br)=C\c1ccccc1)c1cccs1	3.6	60	.	12%	.
COc1ccc(-n2c(=S)[nH]c3cc(C(=O)NCCCN4CCOCC4)ccc3c2=O)c(OC)c1	-0.2	-3	.	5%	6
O=C(O)c1ccc(CSc2nnnn2-c2ccc(F)cc2)cc1	0.3	-6	.	.	.
N=c1c(S(=O)(=O)c2ccc(Br)cc2)cc2c(=O)n3ccccc3nc2n1C1CCCCC1	-0.4	1	.	.	.
COc1cccc(NC(=O)CN(C)C(=O)/C=C/c2cn(-c3ccccc3)nc2-c2ccc(C)cc2)c1	3.5	7	.	.	.
Cc1ccc(CNC(=O)CCNC(=O)N2CCn3c2nc2ccccc23)cc1	-0.3	6	.	.	.

Compounds above that have a Cl atom (4):
SMILES	RecA intein inh	Mtb betalactam	YopH inh	Mtb H37Rv	Arbovirus anti	others
CCn1c(SCc2nc(-c3ccc(Cl)cc3)no2)nnc1-c1ccco1	4.8	9	0	16%	15
O=C(COC(=O)c1ccc(S(=O)(=O)C(F)F)cc1)Nc1cccnc1Cl	-3.0	2	.	.	.
COc1ccc(C2CC(c3cccc(Cl)c3)n3nc(N)nc3N2)cc1 (centres undefined)	-1.9	-7	-30	-15%	6	Arbovirus anti repeat=3
COc1ccc(CNCC(O)(c2ccccc2)c2ccc(Cl)cc2)cc1 (centres undefined)	2.4	65	-3	0%	-18

More records
SMILES	RecA intein inh	Mtb betalactam	YopH inh	Mtb H37Rv	Arbovirus anti	others
c1ccc2c(Nc3ccc4c(c3)OCCO4)c3c(nc2c1)CCC3	0.4	73	.	22%	-5
CCOc1ccc(CCNC(=O)c2nnc(Cc3ccc(F)cc3)o2)cc1OCC	0.5	-8	-24	.	-4	Arbovirus anti repeat=-1
CCN(CC)C1=N/C(=C\c2ccco2)C(=O)N1c1ccccc1	-4.8	8	-25	10%	-1
CCOC(=O)c1[nH]c2ccccc2c1NC(=O)CCN1CCN(C(=O)OCC)CC1	0.2	-5	5	-13%	6
Cc1c(Cl)c(-c2n[nH]c(=S)n2-c2ccc(F)cc2)nn1C	1.4	-7	-37	-4%	8
COc1cc2nc(SCC(=O)c3ccc(Br)cc3)n3nc(C)nc3c2cc1OC	-2.5	13	-35	1%	-7
ONC(=Nc1ccccc1Cl)c1ccccc1Cl	13	1	.	4%	.
CCn1c(O)c(N=NC(=S)NCC2CCCO2)c2ccccc21 (centres undefined)	10	65	.	-4%	-13
N#Cc1c(-c2ccccc2)cc(C2CC2)nc1SCC(=O)O	-2.2	-2	-12	-4%	13
Cc1ccc(N(CC(=O)NC2CCCC2)C(=O)CCCC(=O)Nc2ccccn2)cc1C	.	0	-31	10%	-7
CCOc1ccccc1CNC(=O)C1Cc2cc(S(=O)(=O)N3CCCCC3)ccc2N1C(C)=O (centres undefined)	1.2	-1	.	.	.
CCOc1cc(C2C(C(=O)OCC(C)C)=C(C)N=C3SCCC(=O)N32)ccc1OC(C)=O (centres undefined)	-0.7	-6	-39	-7%	14
CCC(C)c1ccc(N(CC(=O)NC(C)(C)C)C(=O)CNC(=O)c2cccs2)cc1 (centres undefined)	-0.7	-9	.	.	.
CCN(CC(=O)NC1CC1)S(=O)(=O)c1ccc(OC)cc1	2.0	-5	.	.	.
O=C1/C(=C\c2ccc(Br)cc2)SC(=S)N1NS(=O)(=O)c1ccccc1	-1.3	15	.	.	.
COC(=O)c1ccc(NC(=O)CSCc2ccccc2)cc1	3.3	96	-21	67%	5
CC(C)(CNS(C)(=O)=O)SCc1ccc(Cl)cc1	-0.9	-9	.	4%	19
Cc1ccccc1Nc1nnc(SCC(=O)c2ccc(O)cc2O)s1	1.4	-6	.	.	.
Cc1cc(C)c(C(N)=O)c(NCCc2ccccc2)n1	-2.5	-11	-31	-2%	-2
COc1ccc(CNC(=O)COc2cccnc2[N+](=O)[O-])cc1OC	0.5	6	.	.	.
CCCC(C(=O)NC1CCCC1)N(CC1CCCO1)C(=O)CNS(=O)(=O)c1ccccc1 (centres undefined)	5.8	4	.	.	.
CCCCCCn1c(N2CCC(C(N)=O)CC2)nc2c1c(=O)n(C)c(=O)n2C	47*	8	-22	0%	1
CCOC(=O)c1ccccc1Cc1nc2ccccc2c(=O)[nH]1	2.5	-1	-21	5%	0
Cc1ccc(C2CC(=O)N(c3ccc(F)cc3)C3=C2C(=O)CCC3)cc1 (centres undefined)	.	4	21	-5%	-1
CCn1c(NC(=O)c2ccc(C)cc2)c2ccccc2nc1=O	3.2	-7	-24	7%	11
COC(=O)Nc1nnc(CCc2ccccc2)s1	5.1	4	7	-8%	-3
Cc1ccc(C)c(N2CCN(C(=O)CN(C)S(=O)(=O)c3cnc[nH]3)CC2)c1	1.3	-4	-61	-9%	-8
COc1ccc(NC(=O)CS(=O)(=O)c2ccc(C)cc2)c(OC)c1	-2.6	-1	.	.	.
O=C(CNC(=O)c1ccc(N2C(=O)c3ccccc3C2=O)cc1)OCC(=O)c1cccc2ccccc12	0.7	10	-20	4%	0
COc1ccc(OCc2nn3c(-c4cccc(OC)c4)nnc3s2)cc1	0.8	1	-43	>100µM*	-5
O=C(c1cccnc1)N1N=C(c2cccs2)CC1c1ccc(F)cc1 (centres undefined)	.	1	.	2%	1
CCOc1ccc(Br)cc1S(=O)(=O)N1CCC(C(=O)O)CC1	1.4	-10	.	4%	2
CCCN(CCC)C(=O)CSc1nc2ccccc2c(=O)n1C1CCCC1	9.0	11	0	-4%	-5
FC(F)(F)c1cc(N2CCN(Cc3ccccc3)CC2)c2ccccc2n1	0.8	-2	.	10%	.
COc1cc(OC)cc(C(=O)N/N=C\c2ccoc2)c1	-0.4	-5	.	.	.
Cc1cc(=O)[nH]c2c(C)c(Cl)ccc12	-5.2	?	-9	-8%	-4
Cc1ccc(N(CC(=O)N/N=C/c2ccc(OC3CSC3)cc2)S(=O)(=O)c2ccccc2)c(C)c1	0.4	99	-29	?	-3
COc1cc(CN2CCN(CCOCCO)CC2)cc(OC)c1OC	0.7	-7	-35	-2%	2	Arbovirus anti repeat=6
O=C(NCC1CCCO1)c1ccc2c(=O)n(-c3ccccc3)c(=S)[nH]c2c1 (centres undefined)	-1.4	-11	.	4%	3
COc1cc(NC(=O)CCn2c(=S)oc3ccccc32)cc(OC)c1OC	-0.8	3	.	.	.
O=S(=O)(NCc1cccnc1)c1cccn1-c1ncc(C(F)(F)F)cc1Cl	-1.1	0	.	7%	14
COc1cccc(C(=O)Nc2cc(NC(=O)c3cccs3)ccc2C)c1OC	3.0	86	.	.	.
Cc1cccc(NC(=O)NCC2CC2)c1	-1.1	1	.	.	.
COCCn1c(=NC(=O)/C=C/c2ccccc2Cl)sc2cc(NC(C)=O)ccc21	-2.2	-3	-12	1%	4
O=C(Oc1oc(-c2ccco2)nc1C=Nc1ccc(Cl)cc1)c1ccco1	6.7	.	-2	.	-3
CN(C)S(=O)(=O)c1cccc(NC(=O)C(c2ccccc2)c2ccccc2)c1	-0.5	0	.	.	.
CC(C)(C)C(C(Oc1ccc(Cl)cc1)n1cncn1)n1nnnc1C(c1cccc(Cl)c1)N1CCCCC1 (centres undefined)	10	98	-4	12%	-19
Cc1ccccc1NC(=O)C1CCCN1/C=C/C(=O)C(F)(F)F (centres undefined)	-1.6	2	-29	0%	1
COC(=O)c1cc(S(=O)(=O)N2CCCCC2C)c[nH]1 (centres undefined)	-1.0	-1	.	.	.
COCCOC(=O)c1c(C)n(C)c2ccc(OC(=O)c3ccccc3F)cc12	-1.2	4	.	.	.
CCN(CCO)Cc1cc(=O)oc2c(C)c(C)ccc12	2.8	6	-17	-8%	9
Cc1nnc2sc(COc3ccccc3)nn2c1=O	0.3	-2	.	.	.
Cc1cc(NC(=O)c2cccc3ccccc23)cc(C)c1OCC(=O)N1CCOCC1	1.1	-15	-12	1%	-3
COc1cc(S(=O)(=O)N2CCOCC2)ccc1F	-1.6	-9	7	2%	9
COC(=O)c1cn(NC(=O)c2ccccc2[N+](=O)[O-])c(=O)c2ccccc12	-6.0	-14	.	-4%	-6
NC(=O)CCCn1c(C(=O)c2ccc(Cl)cc2)c2ccc([N+](=O)[O-])cc2[n+]1[O-]	7.1	-1	.	.	.
CCc1ccc(NC(=O)CC2C(=O)Nc3c2c(=O)n(C)c(=O)n3C)cc1 (centres undefined)	-0.3	46	-5	-2%	-2
CCOC(=O)C1=C(CN2c3ccccc3CC2C)NC(=O)NC1c1ccccc1 (centres undefined)	0.7	-1	-11	14%	-22
COc1ccc(NC(=O)NC2CCCCCCC2)c(OC)c1	-0.1	0	.	.	.
CCN(CC)S(=O)(=O)c1ccc2c(c1)N(CC(=O)Nc1ccc(NC(C)=O)cc1)C(=O)CO2	-0.5	2	.	.	.
Other records
SMILES	RecA intein inh	Mtb betalactam	YopH inh	Mtb H37Rv	Arbovirus anti	others
CCOC(=O)c1sc(N)c(C(=O)Nc2ccccc2)c1C	1.0	2	.	-3%	-8
Cc1cccc(OCC(=O)NC(=S)Nc2ccccc2N2CCOCC2)c1C	-0.9	-3	.	.	.
CCOC(=O)C1=C(N)OC2=C(C(=O)CCC2)[C@]12C(=O)N(CC(N)=O)c1ccccc12	1.1	-2	.	-4%	.
O=C1CSC2=NCN(c3ccc4c(c3)OCO4)CN12	-5.1	95	-28	1%	-1
O=[N+]([O-])c1ccc(-c2nc3ccc([N+](=O)[O-])cc3[nH]2)cc1	8.5	-7	-16	15%	5
COC(=O)c1ccc(-n2c(C)cc(/C=N/n3cnnc3)c2C)cc1	1.8	-5	-17	0%	2
COc1ccc(NC(=O)CN2C(=O)NC(C)(c3ccccc3)C2=O)c(OC)c1 (centres undefined)	-0.9	-2	.	.	.
CC(=O)Nc1cccc(NC(=S)Nc2ccc(F)cc2F)c1	2.6	-8	.	-1%	3
CC(Sc1nc(=O)cc(N)n1CCc1ccccc1)C(=O)NCc1ccccc1 (centres undefined)	3.0	-4	.	-7%	-11
Cc1cc(C(=O)Nc2ccncc2)ccc1[N+](=O)[O-]	-1.4	-1	.	.	.
CCSCCOC(=O)C1=C(C)NC(=O)NC1c1ccc2c(c1)OCO2 (centres undefined)	-2.8	-5	-44	2%	-6	Arbovirus anti repeat=-3
O=C1CC(c2ccccc2)=NN1c1nc(-c2ccccc2)cs1	-0.2	2	.	5%	10
CC(=O)c1cc2c(cc1NC(=O)Cn1nc(-c3ccc(F)cc3)ccc1=O)OCO2	-0.4	14	.	.	.
CCOC(=O)C1(CC2CCCCO2)CCN(S(=O)(=O)c2ccccc2)CC1 (centres undefined)	1.9	2	.	-12%	-10
Cc1c(NC(=O)c2ccc(N3C(=O)C4C5C=CC(C5)C4C3=O)cc2)c(=O)n(-c2ccccc2)n1C (centres undefined)	-0.7	4	-33	-3%	2
CCC(C)NCCOc1ccc(C(C)(C)c2ccccc2)cc1 (centres undefined)	2.2	100	.	?	-29
CC1=C(C(=O)OCC(C)C)C(c2ccccc2Cl)NC(=O)N1C (centres undefined)	6.2	-2	-45	5%	-2	Arbovirus anti repeat=7
O=c1[nH]c(NCc2ccco2)nnc1Cc1ccccc1Cl	.	-8	-10	-2%	2
Cc1nc2cc(NC(=O)Nc3ccc(Br)cc3)ccc2o1	.	-1	.	6%	-1

Four compounds already listed, ordered by heavy-atom count, largest number first.
SMILES	RecA intein inh	Mtb betalactam	YopH inh	Mtb H37Rv	Arbovirus anti	others
Cc1c(NC(=O)c2ccc(N3C(=O)C4C5C=CC(C5)C4C3=O)cc2)c(=O)n(-c2ccccc2)n1C (centres undefined)	-0.7	4	-33	-3%	2
CC(=O)c1cc2c(cc1NC(=O)Cn1nc(-c3ccc(F)cc3)ccc1=O)OCO2	-0.4	14	.	.	.
O=c1[nH]c(NCc2ccco2)nnc1Cc1ccccc1Cl	.	-8	-10	-2%	2
Cc1nc2cc(NC(=O)Nc3ccc(Br)cc3)ccc2o1	.	-1	.	6%	-1
